Ecoli rRNA inh: reduced GFP signal of wild-type E. coli, primary screen, bacterial rRNA inhibitor project, GFP/RFP fluorescence, OD600, single point; GFP signal change (wild-type ribosome), % (concentration not given with the values); AID 720706, 2013; E. coli WT GFP vs humanized-ribosome RFP mutants, 24 h; active compounds read low; DMSO median 0, no signal -100; 350,000 compounds, 1.6% hits;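 active = significant combined selectivity score with lowered wild-type GFP, culture density cut under 30%, mutant RFP and density less affected; inactive = any of these conditions unmet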; note: one replicate is shown; some compounds called inactive have numbers as strong as hits
FGF22 binding: binders of human FGF22 protein, primary screen, FGF22 synaptogenesis inhibitor project, biophysical, thermal shift, single point; recombinant FGF22 thermal shift, SYPRO orange fluorescence; percent of sucrose octasulfate shift, DMSO zero; calls only at 9.99 µM; 340,000 compounds, 1.5% hits; Fibroblast growth factor 22 (Homo sapiens), Q9HCT0;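 active = melting point raised past a set limit in the mean and every replicate; three in four hits are not shown here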
Target sequence (Q9HCT0 whole entry, looked up): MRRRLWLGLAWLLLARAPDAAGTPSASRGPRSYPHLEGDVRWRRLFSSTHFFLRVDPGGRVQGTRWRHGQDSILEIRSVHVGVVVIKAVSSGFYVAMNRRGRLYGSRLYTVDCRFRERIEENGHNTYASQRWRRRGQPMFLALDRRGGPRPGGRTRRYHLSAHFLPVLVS
Ecoli rRNA inh OD600: second read-out of Ecoli rRNA inh, no call of its own (marks repeat the call); OD600 change, %; measured here: OD600 growth;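 optical density of the mix in the first replicate; 0 = DMSO median and -100 = no signal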
Ecoli rRNA inh RFP: further read-out of Ecoli rRNA inh, marked with its call; RFP signal change, %; measured here: RFP humanized mutant strains;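 first replicate; 0 = DMSO median and -100 = no signal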
* = called active by the depositor; i = inactive; + = active, no number. Some of the compounds tested. The share of hits here may be higher or lower than overall.

SMILES | Ecoli rRNA inh | Ecoli rRNA inh OD600 | Ecoli rRNA inh RFP | FGF22 binding
COc1ccc(S(=O)(=O)N(C)C[C@@H]2OCCCC[C@@H](C)Oc3ccc(NC(=O)Nc4c(C)noc4C)cc3C(=O)N([C@@H](C)CO)C[C@@H]2C)cc1 | 1 | -5 | 2.9 | i
Cc1noc(C)c1S(=O)(=O)N(C)C[C@H]1Oc2ccc(NS(C)(=O)=O)cc2CC(=O)N([C@H](C)CO)C[C@@H]1C | 3 | 9 | -1.8 | i
CO[C@@H](CN(C)C(=O)Nc1ccc(F)cc1)[C@H](C)CN(Cc1ccccc1Cl)[C@H](C)CO | 0 | 1 | 1.2 | i
Cc1ccc(S(=O)(=O)N[C@@H]2C=C[C@@H](CC(=O)NCc3ccncn3)O[C@@H]2CO)cc1 | 4 | 10 | -0.2 | i
C[C@@H]1CN([C@@H](C)CO)C(=O)c2cccc(N(C)C)c2O[C@H]1CN(C)S(=O)(=O)c1cccs1 | -5 | -7 | 1.0 | i
CC(C)NC(=O)Nc1cccc2c1O[C@H](CN(C)Cc1ccncc1)[C@H](C)CN([C@H](C)CO)C2=O | 6 | 9 | -1.0 | i
O=C(c1ccc2c(c1)OCO2)N1C[C@@H]2[C@H](c3ccccc31)[C@@H](CO)N2CC1CCCC1 | -7 | -10 | 1.6 | i
CC(C)CC#Cc1ccc2c(c1)O[C@H](CN(C)C(=O)Cc1cccnc1)[C@H](C)CN([C@H](C)CO)S2(=O)=O | -1 | -21 | 4.8 | i
COc1ccc(S(=O)(=O)N(C)C[C@H]2OCCCC[C@H](C)Oc3ccc(NC(=O)NC(C)C)cc3C(=O)N([C@H](C)CO)C[C@@H]2C)cc1 | -4 | 0 | 4.5 | i
CCC(=O)N1C[C@H](C)[C@H](OC)CN(C)C(=O)c2cc(NC(=O)NC(C)C)ccc2OC[C@@H]1C | 2 | 5 | -1.1 | i
C[C@@H]1CN([C@H](C)CO)C(=O)c2cc(NC(=O)NC3CCCCC3)ccc2O[C@@H](C)CCCCO[C@H]1CN(C)S(=O)(=O)c1cccs1 | -2 | -1 | -0.2 | i
Cc1ccccc1-c1ccc([C@@H]2[C@H](CO)N3CCCCN(CC4CCOCC4)C[C@@H]23)cc1 | 5 | 3 | -2.2 | i
COc1ccc(S(=O)(=O)N(C)C[C@@H]2Oc3cc(-c4ccccc4OC)ccc3S(=O)(=O)N([C@@H](C)CO)C[C@@H]2C)cc1 | -6 | 7 | 0.8 | i
C[C@H]1CN([C@@H](C)CO)C(=O)c2cc(NC(=O)Nc3cccc4ccccc34)ccc2O[C@H]1CN(C)S(=O)(=O)c1ccc(Cl)cc1 | 3 | 5 | 0.2 | i
CN1C(=O)c2cc(NC(=O)Cc3cccs3)ccc2OC[C@@H]2O[C@@H](CC(=O)NCC3CCCCC3)CC[C@@H]21 | -6 | -15 | 1.7 | i
COCC#Cc1cnc2c(c1)C(=O)N([C@@H](C)CO)C[C@H](C)[C@@H](CN(C)C(=O)Cc1cccnc1)O2 | -2 | -7 | -0.4 | i
CN1C(=O)c2cc(NC(=O)Nc3ccccc3F)ccc2OC[C@H]2O[C@@H](CC(=O)NCCc3ccncc3)CC[C@H]21 | 0 | -4 | 0.0 | i
N#C[C@@H]1[C@H](c2ccc(-c3ccccc3)cc2)[C@@H](CO)N1C(=O)Cc1ccccc1 | -45 | -64 | -7.7 | i
CCC(=O)N(C)C[C@H]1Oc2cc(C#Cc3cccnc3)ccc2S(=O)(=O)N([C@@H](C)CO)C[C@@H]1C | -5 | -4 | 3.5 | i
C[C@@H]1CN([C@@H](C)CO)C(=O)c2cc(-c3ccc(F)cc3)cnc2O[C@H]1CN(C)C(=O)NC1CCCC1 | 3 | -8 | -1.2 | i

Not a retest: entries from further up.
SMILES | Ecoli rRNA inh | Ecoli rRNA inh OD600 | Ecoli rRNA inh RFP | FGF22 binding
C[C@H]1CN([C@@H](C)CO)C(=O)c2cc(NC(=O)Nc3cccc4ccccc34)ccc2O[C@H]1CN(C)S(=O)(=O)c1ccc(Cl)cc1 | 3 | 5 | 0.2 | i
CN1C(=O)c2cc(NC(=O)Cc3cccs3)ccc2OC[C@@H]2O[C@@H](CC(=O)NCC3CCCCC3)CC[C@@H]21 | -6 | -15 | 1.7 | i

Following part.
SMILES | Ecoli rRNA inh | Ecoli rRNA inh OD600 | Ecoli rRNA inh RFP | FGF22 binding
CCCCNC(=O)C[C@H]1C[C@@]2(C(=O)OC)C(=C[C@H](COCc3ccccc3)O[C@@H]2C)N(CCC2=CCCCC2)C1=O | 8 | -2 | 4.1 | i
COc1ccccc1-c1ccc(C2[C@@H]3CN(Cc4cccc(F)c4)C[C@H]2N3)cc1 (stereo partly drawn) | -56 | -78 | -17 | i
C[C@H](CO)N1C[C@H](C)[C@H](CN(C)C(=O)c2ccc3c(c2)OCO3)Oc2cc(-c3cncnc3)ccc2S1(=O)=O | 2 | 4 | -4.0 | i
CCCNC(=O)N1CC2(CCN(CC3CC3)CC2)c2c([nH]c3cc(OC)ccc23)[C@@H]1CO | 5 | 6 | 1.2 | i
COc1ccc(S(=O)(=O)N(C)C[C@H]2Oc3ccc(NC(=O)Cn4cnnn4)cc3CC(=O)N([C@@H](C)CO)C[C@@H]2C)cc1 | 2 | 1 | 1.2 | i
COc1ccccc1C#Cc1cnc2c(c1)C(=O)N([C@@H](C)CO)C[C@@H](C)[C@@H](CN(C)C(=O)c1ccc3c(c1)OCO3)O2 | -1 | -3 | -4.0 | i
COC(=O)C[C@@H]1CC[C@@H]2[C@@H](COc3ccc(NC(=O)c4ccccc4)cc3C(=O)N2C)O1 | 1 | 11 | 2.8 | i
C[C@H](CO)N1C[C@H](C)[C@@H](CN(C)S(=O)(=O)c2ccc(F)cc2)Oc2ccc(NS(=O)(=O)c3cccs3)cc2CC1=O | -6 | -15 | 4.1 | i
Cc1ccc(S(=O)(=O)Nc2ccc3c(c2)C(=O)N([C@@H](C)CO)C[C@@H](C)[C@H](CN(C)CC2CCCCC2)O3)cc1 | 0 | 12 | 3.3 | i
COc1cccc(C#Cc2ccc3c(c2)O[C@@H](CN(C)S(=O)(=O)c2ccccc2F)[C@@H](C)CN([C@H](C)CO)S3(=O)=O)c1 | 7 | 13 | -1.6 | i
CCC(=O)N1C[C@H](C)[C@H](OC)CN(C)C(=O)c2cc(NC(=O)c3ccc(F)cc3)ccc2OC[C@@H]1C | -3 | 2 | -1.9 | i
C[C@H]1CN([C@@H](C)CO)C(=O)c2cc(-c3cccc(C#N)c3)cnc2O[C@@H]1CN(C)Cc1ccccc1 | 1 | 11 | -3.0 | i
C[C@@H]1CN([C@@H](C)CO)C(=O)c2cc(C#CC3CCCCC3)cnc2O[C@H]1CN(C)C(=O)Nc1ccccc1 | 1 | -5 | 1.3 | i
O=C(C[C@H]1CC[C@H]2[C@@H](COC[C@@H](O)CN2S(=O)(=O)c2ccccc2)O1)NCC1CCCCC1 | -3 | -11 | 2.8 | i
CCS(=O)(=O)Nc1ccc2c(c1)C(=O)N(C)[C@@H]1CC[C@H](CC(=O)NCCCN3CCOCC3)O[C@H]1CO2 | 4 | 5 | -2.7 | i
C[C@@H]1CCCCO[C@@H](CN(C)C(=O)c2ccncc2)[C@H](C)CN([C@@H](C)CO)C(=O)c2cc(NS(=O)(=O)c3cn(C)cn3)ccc2O1 | 3 | 5 | -4.1 | i
CN1C(=O)c2cc(NC(=O)Cc3ccccc3)ccc2OC[C@@H]2O[C@H](CC(=O)NC3CCC3)CC[C@H]21 | -1 | -8 | -2.2 | i
COc1ccc(S(=O)(=O)N(C)C[C@@H]2Oc3c(NC(=O)C4CC4)cccc3C(=O)N([C@@H](C)CO)C[C@@H]2C)cc1 | 2 | 5 | 3.2 | i
C[C@H](CO)N1C[C@H](C)[C@@H](CN(C)S(=O)(=O)c2cccs2)Oc2ccc(NC(=O)Nc3cccc4ccccc34)cc2CC1=O | -3 | 1 | -0.6 | i
CO[C@H]1CN(C)C(=O)c2cc(NC(=O)NC(C)C)ccc2OC[C@H](C)N(C(=O)NC(C)C)C[C@@H]1C | 0 | 4 | -0.4 | i

Compound profiles (already shown). Screens in order: Ecoli rRNA inh | Ecoli rRNA inh OD600 | Ecoli rRNA inh RFP | FGF22 binding
Entry for `COc1ccc(S(=O)(=O)N(C)C[C@H]2Oc3ccc(NC(=O)Cn4cnnn4)cc3CC(=O)N([C@@H](C)CO)C[C@@H]2C)cc1` = 2 | 1 | 1.2 | i
Entry for `COc1cccc(C#Cc2ccc3c(c2)O[C@@H](CN(C)S(=O)(=O)c2ccccc2F)[C@@H](C)CN([C@H](C)CO)S3(=O)=O)c1` = 7 | 13 | -1.6 | i
Entry for `C[C@H](CO)N1C[C@H](C)[C@@H](CN(C)S(=O)(=O)c2cccs2)Oc2ccc(NC(=O)Nc3cccc4ccccc34)cc2CC1=O` = -3 | 1 | -0.6 | i
Entry for `O=C(C[C@H]1CC[C@H]2[C@@H](COC[C@@H](O)CN2S(=O)(=O)c2ccccc2)O1)NCC1CCCCC1` = -3 | -11 | 2.8 | i
Entry for `Cc1ccc(S(=O)(=O)Nc2ccc3c(c2)C(=O)N([C@@H](C)CO)C[C@@H](C)[C@H](CN(C)CC2CCCCC2)O3)cc1` = 0 | 12 | 3.3 | i

Next section
SMILES | Ecoli rRNA inh | Ecoli rRNA inh OD600 | Ecoli rRNA inh RFP | FGF22 binding
O=C(C[C@H]1C[C@H]2c3cc(NC(=O)c4ccc5c(c4)OCO5)ccc3O[C@H]2[C@H](CO)O1)NCC(F)(F)F | 2 | 6 | 0.0 | i
C[C@@H]1CCCCO[C@H](CN(C)C(=O)Cc2ccccc2)[C@H](C)CN([C@@H](C)CO)C(=O)c2cc(NC(=O)Nc3ccc(C(F)(F)F)cc3)ccc2O1 | 1 | 10 | -1.3 | i
C[C@@H]1CN([C@H](C)CO)S(=O)(=O)c2ccc(C#Cc3ccncc3)cc2O[C@@H]1CN(C)C(=O)C1CC1 | -2 | -18 | 0.3 | i
CC(C)(C)OC(=O)N1O[C@H]2C=C[C@@H]1C2 | 5 | 13 | -1.6 | i
CNC[C@@H]1Oc2cc(C#CC3CCCC3)ccc2S(=O)(=O)N([C@@H](C)CO)C[C@H]1C | 3 | 16 | 2.8 | i
C[C@@H]1CN([C@H](C)CO)C(=O)c2cc(NS(C)(=O)=O)ccc2O[C@@H](C)CCCCO[C@@H]1CN(C)Cc1ccc(C(=O)O)cc1 | 3 | 1 | 0.2 | i
COc1ccc(NC(=O)Nc2ccc3c(c2)C(=O)N([C@@H](C)CO)C[C@@H](C)[C@@H](CN(C)S(=O)(=O)c2ccc(OC)cc2)OCCCC[C@H](C)O3)cc1 | 0 | 4 | -3.2 | i
C[C@H](CO)N1C[C@H](C)[C@H](CN(C)C(=O)Nc2cccc3ccccc23)OCCCC[C@H](C)Oc2ccc(NC(=O)Cc3ccccc3)cc2C1=O | -3 | 3 | -2.5 | i
C[C@H](CO)N1C[C@H](C)[C@H](CN(C)CC2CCCCC2)Oc2ccc(NC(=O)C3CCCCC3)cc2CC1=O | -5 | 8 | -2.0 | i
C[C@H]1CN([C@@H](C)CO)C(=O)c2cccc(NC(=O)c3ccncc3)c2O[C@@H]1CN(C)Cc1ccc(C(F)(F)F)cc1 | -15 | -20 | 0.4 | +
CCNC(=O)Nc1ccc2c(c1)C(=O)N(C)[C@H]1CC[C@@H](CC(=O)NCc3cccc(F)c3)O[C@@H]1CO2 | 2 | -2 | -1.2 | i
COCC(=O)Nc1ccc2c(c1)OC[C@@H](C)N(C(=O)c1ccccc1)C[C@H](C)[C@@H](OC)CN(C)C2=O | -1 | 1 | -1.7 | i
C[C@@H]1CN([C@H](C)CO)C(=O)c2cc(NS(=O)(=O)c3cn(C)cn3)ccc2O[C@@H](C)CCCCO[C@@H]1CN(C)S(C)(=O)=O | 2 | 11 | 1.1 | i
CN1C(=O)c2cc(NC(=O)C3CCOCC3)ccc2OC[C@@H]2O[C@@H](CC(=O)NCc3ccccc3F)CC[C@H]21 | 1 | 7 | -2.2 | i
O=C(C[C@H]1CC[C@@H](NC(=O)c2ccncc2)[C@H](CO)O1)NCC1CCCCC1 | 0 | 3 | -1.4 | i
C[C@H]1CN([C@@H](C)CO)C(=O)c2cc(C#CCN(C)C)cnc2O[C@@H]1CN(C)Cc1cccc(F)c1 | -4 | -9 | -3.5 | i
C[C@H](CO)N1C[C@H](C)[C@H](CN(C)C(=O)NC2CCCCC2)Oc2c(NC(=O)c3nc4ccccc4s3)cccc2C1=O | -12 | -10 | 0.8 | i
O=C(O)C[C@H]1C=C[C@@H](NC(=O)Nc2ccccc2)[C@H](CO)O1 | 3 | 9 | 0.4 | i
CCC(=O)N1[C@H](CN(CC)C(=O)c2ccccc2)[C@@H](c2ccccc2)[C@@H]1CO | -2 | -1 | -1.1 | i
COc1ccccc1S(=O)(=O)N[C@H]1CC[C@@H](CCNC(=O)C2CCCC2)O[C@H]1CO | 4 | 1 | -0.9 | i
CC(C)NC(=O)Nc1ccc2c(c1)C(=O)N([C@@H](C)CO)C[C@H](C)[C@H](CN(C)C(=O)C1CCCCC1)OCCCC[C@H](C)O2 | 0 | -2 | -0.3 | i
CNC[C@H]1Oc2cc(C#CC(C)(C)O)ccc2S(=O)(=O)N([C@@H](C)CO)C[C@@H]1C | 1 | -1 | -1.0 | i
CCCNC(=O)N1[C@@H]2Cn3c(ccc(-c4cccc(OC)c4)c3=O)[C@H]1[C@@H](C(=O)NCC)[C@@H]2CO | -2 | -4 | -0.8 | i
CN(C)C(=O)C[C@@H]1CC[C@@H]2[C@H](COC[C@H](O)CN2Cc2nccs2)O1 | 2 | 15 | -0.4 | i
